Screens: PubChem, several laboratories
Insulin prom inh: TRM-6 insulin promoter activity inhibition. AID 1273. 130,000 compounds, 0.9% hits. TRM-6 cells (human fetal islet line), insulin promoter-eGFP reporter, imaging; reporter expression induced with tamoxifen. inhibition, % at 2 µM;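 active = inhibition above the mean plus 3 SD, with well images judged a real hit on visual review, cut at about 60% in these data, passing the limit was not always enough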
HSV replic up: HSV replication enhancement | maximum fold increase | HSV replication augmentation in cells, fold increase | AID 1956 | 220,000 compounds, 0.005% hits;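 active = peak rise of 1.5-fold or more in the series; tested in PC3 cells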;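 note: first round at 10 µM; read as green reporter fluorescence; hits show the peak of a series up to 25 µM; 1 = signal of infected wells without compound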
RGS16-Gao: modulates binding between human RGS16 and Galphao. O15492+P09471. bead-based flow cytometry RGS16-Galphao binding, fluorescence; actives lie on both sides. binding response (% of control), % at 10 µM. 220,000 compounds, 0.38% hits;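 active = below 25% or above 175%, edge rows of some plates excepted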;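 note: Galphao activated by GDP with aluminum fluoride before binding; 100% = wells without compound and 0% = beads without RGS; some results beyond the cut were filed as inactive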
PKD1 kinase inh: inhibitors of human PKD1 kinase; AID 797; Q15139; inhibition, %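 (about 10 µM by stock and volumes)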; 200,000 compounds, 0.056% hits; PKD1 kinase fluorescence polarization assay;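 active = inhibition of 50% or more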;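 note: controls were vehicle for no effect and a reference inhibitor for full effect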
Target sequence (Q15139 whole entry, looked up): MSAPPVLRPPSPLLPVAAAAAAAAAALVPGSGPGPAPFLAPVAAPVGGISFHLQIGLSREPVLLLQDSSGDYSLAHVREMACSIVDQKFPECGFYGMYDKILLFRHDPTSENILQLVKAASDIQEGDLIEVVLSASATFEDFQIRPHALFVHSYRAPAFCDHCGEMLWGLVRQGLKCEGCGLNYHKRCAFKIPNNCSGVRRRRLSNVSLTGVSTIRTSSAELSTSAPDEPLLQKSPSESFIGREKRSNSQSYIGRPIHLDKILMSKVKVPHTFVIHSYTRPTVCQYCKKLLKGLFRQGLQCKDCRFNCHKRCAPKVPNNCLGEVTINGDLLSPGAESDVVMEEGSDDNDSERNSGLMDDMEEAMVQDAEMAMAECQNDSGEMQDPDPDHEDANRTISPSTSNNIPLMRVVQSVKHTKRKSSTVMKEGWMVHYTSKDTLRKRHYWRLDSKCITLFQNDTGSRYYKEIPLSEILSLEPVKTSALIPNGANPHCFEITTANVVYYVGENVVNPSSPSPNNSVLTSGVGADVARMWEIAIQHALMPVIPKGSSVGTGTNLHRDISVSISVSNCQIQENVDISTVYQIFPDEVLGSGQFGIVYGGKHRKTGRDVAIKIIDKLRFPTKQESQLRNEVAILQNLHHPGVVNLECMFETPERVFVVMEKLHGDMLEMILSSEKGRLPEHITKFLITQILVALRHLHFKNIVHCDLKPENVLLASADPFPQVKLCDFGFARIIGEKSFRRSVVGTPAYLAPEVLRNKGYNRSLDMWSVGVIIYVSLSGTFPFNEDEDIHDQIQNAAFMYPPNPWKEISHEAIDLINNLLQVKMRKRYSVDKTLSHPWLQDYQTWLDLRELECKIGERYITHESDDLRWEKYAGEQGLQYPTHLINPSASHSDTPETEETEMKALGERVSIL
GALR2 agonist: activates the human galanin receptor 2 | GALR2-expressing cells, agonist activation read-out | 140,000 compounds, 0.48% hits | AID 803 | activation, %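 (tested at 5 µM)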 | O43603;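 active = above mean plus 3 SD of all compounds, about 5% in these data, not always enough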;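 note: 0% = vehicle buffer wells and 100% = reference agonist at full effect; tested in CHO reporter cells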
Insulin prom inh cell count: second read-out of Insulin prom inh, no call of its own (marks repeat the call); normalized cell count, %; measured here: cell count, toxicity; reference of the scale not given here;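 cells exposed to compound for 48 h; stained nuclei by imaging scaled within each plate; lower means fewer cells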
HSV replic up primary fold: also measured in HSV replic up; calls as there; fold increase; compound at 10 µM; measured here: primary screen fold increase 10 uM; tested in PC3 cells;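 GFP signal in the first replicate; 1 = infected wells without compound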
* hit, by the source's call; i = inactive; . = not tested or not shown.

smiles | Insulin prom inh | Insulin prom inh cell count | HSV replic up | HSV replic up primary fold | RGS16-Gao | PKD1 kinase inh | GALR2 agonist
CCC(=O)N1CC2(CC(c3cccc([N+](=O)[O-])c3)=NO2)C[C@H]1C(=O)NCC(N)=O (stereo not given in full) | . | . | i | 0.86 | 104 | -3 | -2.8
C=CCn1c(SCc2ccc(C#N)cc2)nnc1-c1ccccc1 | -73 | 84 | i | 1 | 105 | 0 | -2.6
COc1cc(C(=O)N[C@H](C(=O)Nc2nnc(C3CC3)s2)C(C)C)cc(OC)c1OC | . | . | i | 0.96 | 105 | . | .
COc1ccc(C(O)(C(=O)NNc2ccc(C)cc2)c2cccs2)cc1 (stereo not given) | 23 | 100 | i | 1.1 | 93 | -5 | -1.4
CCN(CC)C(=O)Cc1c(O)c2ccccc2[nH]c1=O | . | . | i | 0.95 | 95 | . | .
CN1CCC(=NNC(=O)C(=O)NCc2ccccc2)CC1 | 26 | 140 | i | 0.85 | 97 | 6 | -4.2
NC(=O)COC(=O)c1ccc(Cl)c(S(=O)(=O)N2CCCCCC2)c1 | -13 | 118 | i | 0.88 | 104 | -8 | .
Clc1cccc(-c2ccc(/C=N/n3cnnc3)o2)c1 | . | . | i | 1.2 | 95 | -7 | -0.6

Whole records from above.
CN1CCC(=NNC(=O)C(=O)NCc2ccccc2)CC1 is listed with Insulin prom inh: 26; Insulin prom inh cell count: 140; HSV replic up: i; HSV replic up primary fold: 0.85; RGS16-Gao: 97; PKD1 kinase inh: 6; GALR2 agonist: -4.2
C=CCn1c(SCc2ccc(C#N)cc2)nnc1-c1ccccc1 is listed with Insulin prom inh: -73; Insulin prom inh cell count: 84; HSV replic up: i; HSV replic up primary fold: 1; RGS16-Gao: 105; PKD1 kinase inh: 0; GALR2 agonist: -2.6

Continued:
smiles | Insulin prom inh | Insulin prom inh cell count | HSV replic up | HSV replic up primary fold | RGS16-Gao | PKD1 kinase inh | GALR2 agonist
O=C(NCc1nc2ccccc2[nH]1)C1=C[C@H](C2CCCCC2)C[C@H](OCc2ccc(CO)cc2)O1 | . | . | i | 0.93 | 100 | -5 | .
COc1cccc(C2CC(c3ccc(Br)cc3)=NN2C(=O)c2ccncc2)c1OC (stereo not given) | 25 | 112 | i | 0.78 | 96 | -1 | .
CCCS(=O)(=O)c1c(S(=O)(=O)CCC)c2ccc(C(N)=O)cn2c1C(=O)c1ccc(F)cc1 | . | . | i | 0.88 | 97 | 2 | .
Cc1noc(C)c1C(=O)Nc1ccc(F)cc1F | . | . | i | 0.93 | 107 | 3 | -2.4
C=CCn1c(SCC(=O)NC(=O)NC2CCCC2)nnc1C1CCCCC1 | -40 | 133 | i | 0.85 | 76 | 14 | -1.3
COCCn1c(CN2CCC(Cc3ccccc3)CC2)nc2c1c(=O)n(C)c(=O)n2C | -15 | 72 | i | 1 | 89 | -5 | -2.6
FC(F)(F)c1ccc(Oc2ccc3ccccc3c2Br)nc1 | . | . | i | 1.1 | 99 | -16 | 0.0
CC1(C)C(N(O)C(=O)Nc2ccccc2)N(c2cccc(Cl)c2)C(=O)N1O (stereo not given) | 14 | 60 | i | 1 | 104 | 2 | -1.0
CC(C)Cn1c(=O)c2c(nc3n2CCCN3CCc2ccccc2)n(C)c1=O | -26 | 74 | i | 0.86 | 52 | 15 | -0.3
Cc1cccc(N2CN(Cc3ccco3)CNC2=S)c1C | -27 | 118 | i | 0.87 | 97 | 0 | -1.9
CC(C)(C)NC(=O)c1nc2nc(-c3ccccc3)cc(C(F)(F)F)n2n1 | . | . | i | 0.81 | 103 | 3 | -0.5
CC(C)CNC(=S)NC(=O)c1ccc(Cl)cc1 | -37 | 67 | i | 0.96 | 108 | -1 | -0.3
CC1=C(C(=O)Nc2ccccc2)C(c2ccc(C(C)C)cc2)N2C(=O)CSC2=N1 (stereo not given) | -3 | 159 | i | 0.94 | 108 | -4 | -1.4
Cc1cc(C(=O)CN2C(=O)c3cccc(N)c3C2=O)c(C)n1Cc1cccs1 | . | . | i | 0.77 | 81 | 4 | 8.3
O=C(CCc1nc2ccccc2c(=O)[nH]1)Nc1ccc(F)cc1 | -11 | 77 | i | 0.87 | 107 | -6 | -1.3
Cc1nn(CC(=O)NC2C(=O)N3C(C(=O)O)=C(CSc4nnnn4C)CSC23)cc1Br (stereo not given) | . | . | i | 0.97 | 95 | 2 | .
Brc1cccc(-c2nnc3sc(CN4CCC5(CC4)OCCO5)cn23)c1 | . | . | i | 0.93 | 104 | -15 | -0.8
CCc1nnc(NC(=O)C2Cc3ccccc3CN2S(=O)(=O)c2cccs2)s1 (stereo not given) | -14 | 59 | i | 0.93 | 88 | -3 | -1.1
COc1cccc(C2NC(=O)NC(O)(C(F)(F)F)C2C(=O)c2cccnc2)c1OC (stereo not given) | -23 | 86 | i | 1.1 | 99 | -3 | -0.7
NS(=O)(=O)c1ccc(NC(=O)C2COc3ccccc3O2)cc1 (stereo not given) | -4 | 92 | i | 0.87 | 93 | -6 | -2.3
O=C(CCc1nc2ccccc2c(=O)[nH]1)OCc1ccccc1F | -89 | 130 | i | 0.95 | 91 | -7 | -0.5
NC(=O)c1nn(CC(=O)Nc2ccc3c(c2)OCO3)cc1[N+](=O)[O-] | -136 | 59 | i | 0.93 | 115 | -3 | .
O=c1ccn(CCCBr)c(=O)[nH]1 | . | . | i | 0.88 | 104 | . | .
C=CCNC(=O)c1ccc2nc(-c3ccccc3)c(-c3ccccc3)nc2c1 | . | . | i | 0.78 | 101 | -11 | -3.4
N#Cc1cc(C(=O)Cc2ccccc2)c[nH]1 | . | . | i | 1.2 | 102 | -2 | .
NC(=Nc1ccc(Cl)cc1)c1ccccc1 | . | . | i | 1 | 109 | 1 | .
COc1cccc(NC(=O)NCc2c(-c3ccccc3)noc2C)c1 | . | . | i | 0.87 | 105 | . | .
O=C(Cc1c(C(=O)O)[nH]c2ccccc12)NC1CCCC1 | -10 | 120 | i | 0.96 | 99 | -5 | .
CC(C)NC(=S)Nc1ccc2[nH]c(=O)[nH]c2c1 | . | . | i | 1.1 | 102 | 1 | .
CC(C)(C)c1ccc(/C=N/n2cnnc2)cc1 | . | . | i | 0.91 | 101 | -5 | .
O=c1cc(-c2ccco2)oc2ccc(Cl)cc12 | -34 | 150 | i | 1 | 105 | -5 | -3.4
CC(C)n1nc(C(=O)NCCc2ccc(S(N)(=O)=O)cc2)c2ccccc2c1=O | 33 | 135 | i | 1 | 105 | -12 | -0.9
COC(=O)CN(c1ccccc1C)S(C)(=O)=O | . | . | i | 0.8 | 102 | 0 | -1.8
O=C(COC(=O)[C@@H]1CC(O)CN1S(=O)(=O)c1ccccc1[N+](=O)[O-])Nc1ccc2ccccc2c1 (stereo not given in full) | -5 | 86 | i | 0.99 | 100 | 8 | 0.1
COc1ccccc1CNC(=O)c1n[nH]c2ccccc12 | . | . | i | 1 | 107 | . | .
O=C(N/C(=C\c1ccco1)C(=O)N1CCCC1)c1cccs1 | 22 | 109 | i | 1 | 101 | -4 | -0.8
Cn1c(=O)cc(OCCCC(=O)NCc2ccc3c(c2)OCO3)c2ccccc21 | . | . | i | 0.95 | 36 | -8 | -0.7
Cc1occc1-c1nnc(SCC(=O)c2cc3ccccc3oc2=O)o1 | . | . | i | 1.1 | 99 | 6 | -3.4
CC1=Nc2ccccc2N=C(NC(=O)CSC(=S)N2CCCCC2)C1c1ccccc1 (stereo not given) | . | . | i | 1.2 | 100 | . | .
CCC(C(=O)NCCC1=CCCCC1)c1ccccc1 (stereo not given) | -36 | 87 | i | 1.1 | 103 | -4 | -0.9
COc1ccccc1-n1c(=O)c2c3c(sc2n2c(SC)nnc12)CCC3 | -152 | 43 | i | 0.91 | . | -3 | -0.6
Cc1csc(NC(=O)Cn2nc(C)c([N+](=O)[O-])c2C)n1 | . | . | i | 0.94 | 98 | -2 | .
O=S(=O)(/N=C(\c1ccccc1)N1CCOCC1)c1ccc(Cl)cc1 | . | . | i | 1.1 | 90 | -4 | -3.7
COc1cccc(-c2cc(C(F)(F)F)nc(-n3cncn3)n2)c1 | . | . | i | 0.98 | 93 | -4 | -2.3
Cn1c(CCC(=O)Nc2ccccc2F)nnc1SCC(=O)Nc1ccccc1Cl | . | . | i | 0.97 | 99 | -1 | .
CNC(=S)NNC(=O)COc1ccccc1C | . | . | i | 0.89 | 7 | 3 | -2.2
C/C(=N\NC(=S)NC(C)C)c1ccccc1 | . | . | i | 0.84 | 102 | . | .
Oc1ccc(-c2csc(NCc3ccco3)n2)cc1 | . | . | i | 0.8 | 104 | 1 | -3.2
O=C(/C=C/c1ccccc1)c1ccoc1 | 44 | 137 | i | 0.96 | 93 | -3 | -3.3
CC(O)[C@H]1CNC(=O)C(=O)N1CCCCC1CCCCC1 (stereo not given in full) | . | . | i | 0.82 | 96 | . | .
Cc1[nH]c2ccccc2c1C(=O)CN1CCC(C(N)=O)(N2CCCCC2)CC1 | . | . | i | 0.9 | 97 | 3 | -0.9
O=C(COc1ccc(Cl)cc1)NCCC1=CCCCC1 | . | . | i | 0.67 | 105 | -5 | -0.6
CC(C)c1nc2sc3ccccc3c(=O)c2c(=O)n1Cc1ccccc1 | . | . | i | 0.96 | 116 | . | .
Cc1ccc(C(=O)N/N=C2\CCSC2)cc1[N+](=O)[O-] | -23 | 129 | i | 0.83 | 98 | -8 | -1.4
Cc1ccccc1C(=O)N1CCc2cc(-c3nc(NC(=O)Cc4ccc5c(c4)OCO5)sc3C)ccc21 | 8 | 91 | i | 0.91 | 102 | 3 | -2.0
CC1=NN(c2ccccc2)C(=O)C1C(=O)c1ccc(Cl)cc1 (stereo not given) | 18 | 114 | . | . | 96 | -2 | 0.1

(cont.)
smiles | Insulin prom inh | Insulin prom inh cell count | HSV replic up | HSV replic up primary fold | RGS16-Gao | PKD1 kinase inh | GALR2 agonist
CCn1nc(C)c(/C=N/NC(=O)c2ccc3c(c2)c(C)c(C)n3Cc2ccccc2)c1C | . | . | . | . | 98 | -2 | -0.3
O=C(Oc1ccc([N+](=O)[O-])cc1)c1cc(-c2ccccc2)nc2ccccc12 | . | . | i | 0.92 | 74 | 3 | -2.3
CCCC(C)NCC(=O)Nc1ccccc1-c1ccccc1 (stereo not given) | -35 | 192 | i | 0.8 | 140 | -3 | -1.0
O=C(NC12CC3CC(CC(C3)C1)C2)N1CCN(C(=O)c2ccco2)CC1 | . | . | i | 0.9 | 100 | -9 | .
Cc1ccc(NC(=O)c2sc(N)nc2-c2ccc([N+](=O)[O-])cc2)cc1C | . | . | i | 0.8 | 105 | . | .
CCOC(=O)c1c(-c2ccccc2)csc1/N=C/C1C(=O)CCCC1=O | 34 | 95 | i | 1.2 | 91 | -2 | -1.3
COCCNC(=O)CN(c1ccccc1OC)S(C)(=O)=O | -30 | 137 | i | 0.89 | 105 | -12 | -0.7
Clc1ccc(/C(Cc2nc3ccccc3[nH]2)=N\Nc2ccccc2)cc1 | . | . | i | 1.2 | 106 | 3 | .
Cc1nnc2sc(-c3ccc(NC(=O)c4cccnc4)cc3)nn12 | -29 | 94 | . | . | . | -1 | 0.1
CC(=O)c1cccc(CN2CCN(C(C)C)C(CCO)C2)c1 (stereo not given) | . | . | i | 1 | 104 | -8 | .
O=C1N(O)C2(C=CCCC2)/C(=N\O)C12CCCCC2 (stereo not given) | 35 | 105 | i | 0.94 | 62 | 2 | -1.6
Cn1c2ccccc2n2c(=O)c(=O)n(CC(=O)c3ccc(F)cc3)nc12 | -18 | 92 | i | 0.89 | 103 | 0 | -1.5
COc1ccc(N2CCN(C(=O)c3cccc(Br)c3)CC2)c([N+](=O)[O-])c1 | . | . | i | 0.97 | 101 | 1 | .
CC(C)C[C@H](NC(=O)c1[nH]cnc1C(=O)Nc1ccc(CNC(=O)OC(C)(C)C)cc1)C(=O)OC(C)(C)C | . | . | i | 0.45 | 94 | . | .
NC(=O)COc1ccc(-n2cnnn2)cc1 | -7 | 87 | i | 0.9 | 95 | -6 | .
CCOc1ccc(Nc2ncnc(N)n2)cc1 | . | . | i | 1 | 101 | -1 | -4.9
CCCN(CCC)C(=O)Cn1c(=O)n(CCCCC(=O)NC2CCCC2)c(=O)c2ccccc21 | 26 | 97 | i | 0.99 | 102 | 3 | -1.2
COc1ccc(CNCc2c(C(=O)N(C)C)nc3ccc(Cl)cn23)c(OC)c1 | -25 | 123 | i | 0.93 | 107 | -6 | .
